Source: PubChem
PK Bst: modulators of Bacillus stearothermophilus pyruvate kinase; Potency, µM; AID 361; partly purified Bacillus stearothermophilus pyruvate kinase, luminescence ATP production; ribose 5-phosphate activator present at AC10; 51,000 tested, 1.2% active; in the data active means potency below about 11 µM; inconclusive means mostly about 12 µM to 25 µM; inactive means weaker than that;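 the screen sought inhibitors and activators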;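 also: potency is read from the fitted curve at half-maximal effect; scaled between full activation by ribose 5 phosphate and full inhibition by luteolin; about four in five hits inhibit and the cells do not say which; series up to 57 µM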
TsaE inh: inhibitors of E. coli YjeE (TsaE). P0AF67. purified YjeE, fluorescence polarisation of a bound ADP probe. Potency, µM. 71,000 tested, 0.05% active; active = well fitted falling curve; inconclusive = weaker or top-dose-only fall, or a rising curve; inactive = flat or poorly fitted curve;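 also: top concentration of the series not given in the record; excess ADP was the control for the full effect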
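Purified YjeE (10 uM) with BODIPY Texas Red-labeled ADP probe (2 uM); compounds pin-transferred, 15 min at room temperature. Binding inhibition read as decreased fluorescence polarization; ADP titration as control.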
An asterisk follows results filed as active; i = inactive; ? = inconclusive; / = not tested or not shown. Not all compounds are listed; the hit share may differ from the screen's.

# | canonical_smiles | TsaE inh | PK Bst
1 | O=C(Nc1ccc(NC(=O)C2CC2)nc1)c1cccnc1 | i | /
2 | Cn1c(=O)oc2cc(S(=O)(=O)NCCc3ccccc3)ccc21 | i | >57
3 | COc1ccc(C(=O)CN2C(=O)c3ccccc3C2=O)c(OC)c1C | i | >57
4 | CCSC(=Nc1ccccc1)C1=C(O)COC1=O | i | >57
5 | COc1ccc(Cl)c(NC(=O)NCCN2CCN(c3ccccc3)CC2)c1 | i | >57
6 | CC(C)(C)c1cc(CN2CCN(CCC#N)CC2)cc(C(C)(C)C)c1O | i | >57
7 | O=C(CN1C(=O)CSC1=O)Nc1ccccc1F | i | >57
8 | COc1ccc(-c2ccc(-c3nnn(CC(=O)N4CCOCC4)n3)cc2)cc1 | i | 2.64*
9 | CC1CCCN(C(C(=O)Nc2ccc3c(c2)OCCO3)c2ccccc2)C1 (configuration not stated) | i | >57
10 | CCOC(=O)N1CCN(C(=O)CSCc2nc(-c3ccccc3C)oc2C)CC1 | i | >57
11 | Cc1ccc(N2CCN(CC3CC=CCC3)CC2)cc1 (configuration not stated) | i | /
12 | CCn1c(SCC(=O)N2CCOCC2)nc2sc3c(c2c1=O)CCCC3 | / | >25.6
13 | Cc1nn(-c2ccccn2)c2nc(-c3cccs3)cc(C(=O)N3CCOCC3)c12 | i | 7.11*
14 | COc1ccc(N(CC(=O)Nc2cc(C(=O)O)ccc2C)S(=O)(=O)c2c(C)noc2C)cc1 | i | >57
15 | CC(C)N(Cc1cc2ccccc2[nH]c1=O)C(=O)c1cccnc1 | i | >57
16 | Cc1cc(C)nc(N2CCC(C(=O)O)CC2)n1 | i | >57
17 | CCC/C(=C1/C(=O)CC(C)(C)C(C(=O)OC)C1=O)N1CCCC1 (configuration not stated) | i | /
18 | COc1cccc(CNC(=O)Cn2cccc2)c1 | i | >57
19 | O=C(Nc1c(C(=O)NCc2ccco2)cnn1-c1ccccc1)c1ccc(F)cc1 | i | /
20 | Cc1ccc(-c2nn3c(C)nnc3s2)cc1NC(=O)C(C)C | i | /
21 | O=C(NCCN1C(=O)C2C3C=CC(C3)C2C1=O)NCc1ccccc1 (configuration not stated) | i | /
22 | Cc1ccc2[nH]c(=O)c(-c3nc4c(C)cccn4c3NCc3ccco3)cc2c1 | i | >57
23 | CC1CCc2cc(F)cc3c(O)c(C(=O)Nc4cnccn4)c(=O)n1c23 (configuration not stated) | / | >11.4
24 | O=C(NCCN1CCN(c2ccccc2)CC1)c1ccc(NC(=O)C2CCCO2)cc1 (configuration not stated) | i | >57
25 | Cc1nnc2n(-c3ccccc3)c(=O)c3c4c(sc3n12)COC(C(C)C)C4 (configuration not stated) | / | >11.4
26 | O=C(CN1C(=O)COc2ccccc21)NCCCN1CCc2ccccc2C1 | i | >57
27 | Cc1ccccc1-c1cc(N(C)Cc2ccco2)ncn1 | i | /
28 | Cn1c(=O)c2c(ncn2Cc2cc(-c3ccccc3)no2)n(C)c1=O | i | >11.4
29 | COC(=O)c1cc2c(s1)CS(=O)C2 (configuration not stated) | i | >57
30 | CCN(CC)C(=O)CSc1nnc(-n2nc(C)cc2C)c2ccccc12 | i | >57
31 | COc1ccc(CCNC(=O)C2CCCN(C(=O)N(C)C)C2)c(OC)c1 (configuration not stated) | i | >57
32 | CN1C(=O)c2cccc(NCCCN3C(=O)c4ccccc4C3=O)c2C1=O | i | >57

Records listed above that bear a hit mark in PK Bst.
# | canonical_smiles | TsaE inh | PK Bst
8 | COc1ccc(-c2ccc(-c3nnn(CC(=O)N4CCOCC4)n3)cc2)cc1 | i | 2.64*
13 | Cc1nn(-c2ccccn2)c2nc(-c3cccs3)cc(C(=O)N3CCOCC3)c12 | i | 7.11*

(continued)
# | canonical_smiles | TsaE inh | PK Bst
33 | COC(=O)c1ccc(-n2nnnc2SCc2ccccc2OC)cc1 | i | >57
34 | Cc1ccc2cc3cc(C(=O)N4CCCCC4C)oc3nc2c1 (configuration not stated) | i | ?
35 | CC1CCc2c(sc3nc(SCc4nc(-c5ccccc5)no4)n(C)c(=O)c23)C1 (configuration not stated) | i | /
36 | Cc1noc(C)c1S(=O)(=O)N(CC(=O)Nc1ccc2c(c1)OCCO2)c1ccc(C(C)C)cc1 | i | /
37 | Cc1cc(C)n(C(=O)c2ccc(C)c(S(=O)(=O)N3CCOCC3)c2)n1 | i | >57
38 | Cc1nc(C)c(C(=O)Nc2ccccc2)s1 | i | /
39 | O=C(CCSc1nccn1Cc1ccccc1)N1CCOCC1 | i | /
40 | CCOC(=O)N1CCN(C(=O)c2ccc3c(=O)n(Cc4ccc(OC)cc4)c(=S)[nH]c3c2)CC1 | i | >57
41 | COc1ccc(C2C3C(=O)N(Cc4ccccc4)C(=O)C3ON2c2ccccc2)c(OC)c1OC (configuration not stated) | i | >57
42 | Cn1c(=O)c2cc(S(=O)(=O)NCCC(=O)NCC3CCCO3)ccc2n(C)c1=O (configuration not stated) | i | >57
43 | COC(=O)c1ccc(CSc2ccc3nnc(-c4cccnc4)n3n2)o1 | i | /
44 | Cc1ccc(-c2noc(CCC(=O)NCCN3CCc4ccccc4C3)n2)cc1 | i | >57
45 | CCN1CCN(C(c2cccs2)C(C)NC(=O)c2c(F)cccc2F)CC1 (configuration not stated) | i | >57
46 | CN(C)CCCN1C(=O)C(=O)/C(=C(/O)c2ccc3c(c2)OCO3)C1c1ccco1 (configuration not stated) | i | >57
47 | CN1C(=O)c2c(sc3c2CC(C)(C)SC3)N2CCN=C12 | i | >57
48 | CCn1c(SCc2cccnc2)nc2c1c(=O)n(C)c(=O)n2C | i | >57
49 | N#Cc1c2n(c3c(=O)n(CC(=O)c4ccc(Br)cc4)cnc13)CCCC2 | i | /
50 | O=C(CSc1nnc(-c2ccccc2)n1Cc1ccccc1)NC1CC1 | i | >57
51 | Cc1cnc(CNc2nc(-c3c(C)noc3C)nc3ccccc23)cn1 | i | /
52 | O=S(=O)(c1ccc(Br)s1)n1cccn1 | i | >57
53 | Cc1ccc(-c2nn[nH]n2)cc1 | i | >57
54 | Cc1ccc(S(=O)(=O)O[C@@H]2[C@H]([C@@H]3COC(C)(C)O3)O[C@H]3OC(C)(C)O[C@@H]32)cc1 | i | /
55 | Cc1occc1-c1nnc(SCC(=O)Nc2ccccc2-c2ccccc2)n1C | i | >57
56 | COc1ccc(-c2csc3c2[N+]2=CCC=C2C3=O)cc1 | i | /
57 | CC1(C)NC(=O)N(CC(O)CN2C(=O)NC(C)(C)C2=O)C1=O | i | >57
58 | Cc1cc(C)n2nc3nc(N4CCCCC4)nc(-c4ccco4)c3c2n1 | i | >57
59 | O=C(C1CCCN1S(=O)(=O)c1ccc(Cl)c(Cl)c1)N1CCOCC1 (configuration not stated) | i | ?
60 | NS(=O)(=O)c1ccc(NC(=O)COC(=O)CSc2n[nH]c(-c3ccccc3)n2)cc1 | i | /
61 | O=C1c2oc3ccc(Cl)cc3c(=O)c2C(c2cccc(Br)c2)N1CCO (configuration not stated) | i | >57
62 | CCCCCCCC[N+](CCCCCCCC)(CCCCCCCC)CCCCCCCC | ? | /
63 | CCN(CC)C(=S)SSC(=S)N(CC)CC | i | /
64 | COC(=O)c1ccc(-c2nc(O)c3cnccn23)cc1 | i | >57
65 | CC(=O)NC(CCS(C)(=O)=O)C(=O)Nc1ccc(Cl)c(Cl)c1 (configuration not stated) | i | /
66 | CCc1ccccc1NC(=O)CC1S/C(=N\c2nccs2)N(CC)C1=O (configuration not stated) | i | >57
67 | O=C(CN(Cc1ccc(F)cc1)C(=O)CCC(=O)Nc1ccccn1)NCc1ccco1 | i | >11.4
68 | Cc1c2ccccc2c(C)c2c1ccc1ccccc12 | i | /
69 | COc1ccc2[nH]cc(CCNc3nc(-c4cccc(C#N)c4)nc4ccccc34)c2c1 | i | /
70 | CC(=O)Nc1ccccc1OCC(=O)c1ccc2c(c1)OCO2 | i | >57
71 | CC(C)C(=O)Nc1cccc(NC(=O)c2cc3ccccc3o2)c1 | i | i
72 | CC(NC(=O)c1noc2c1CCCC2)c1ccccc1 (configuration not stated) | i | >57
73 | CCCCN(C(=O)NC(=O)Nc1c(C)cc(C)cc1C)S(C)(=O)=O | i | >57
74 | CCOc1cc(C2C(C(=O)O)c3cc(OCC)c(OCC)cc3C(=O)N2C)ccc1O (configuration not stated) | i | >57
75 | CC(C)c1ccc(NC(=O)c2cccnc2)cc1 | i | /
76 | COc1ccc(OCCSc2nc3ccccc3n2CC(=O)O)cc1 | i | /
77 | Cc1cc(Nc2ccccc2)n(CCOC(=O)COc2ccccc2)n1 | i | >57
78 | Cc1ccc(-n2c(SCc3nnc4n3CCC4)nnc2-c2ccccc2)cc1 | i | >57
79 | N#Cc1c(-c2ccco2)cc(C2CC2)nc1N | / | i
80 | Cn1c(C(=O)NCCc2ccsc2)cc2c(=O)n(C)c3ccccc3c21 | i | /
81 | CCC(Sc1nc2n[nH]c(C)c2c(=N)n1-c1cccc(Cl)c1C)C(=O)N(CC)CC (configuration not stated) | i | >57
82 | CC1=CC(C)(C)N2C(=O)C3(C(C#N)=C(N)OC4=C3C(=O)CCC4)c3c(C)c(C)cc1c32 (configuration not stated) | i | >57
83 | CCCCNC(=O)CC1N=C2c3ccccc3N=C(SCC(=O)Nc3cccc(OC)c3)N2C1=O (configuration not stated) | i | >57
84 | COc1ccc(OCC(O)CON2C(=O)c3ccccc3C2=O)cc1 (configuration not stated) | i | >57
85 | CS(=O)(=O)N(CC(O)Cn1c2ccccc2c2ccccc21)c1ccccc1 (configuration not stated) | i | >11.4
86 | O=CN1CCN(C(C(=O)NC2CCCC2)c2ccc(Cl)cc2)CC1 (configuration not stated) | i | >57
87 | COc1cccc(-c2nnc(N(C)C(=O)c3ccno3)s2)c1 | i | >57
88 | N#CCCN(CCC#N)C(=O)c1ccc2c(c1)OCO2 | i | >57

Compound profiles (already shown):
`O=CN1CCN(C(C(=O)NC2CCCC2)c2ccc(Cl)cc2)CC1` (configuration not stated) is listed with TsaE inh: i; PK Bst: >57
`COc1cccc(-c2nnc(N(C)C(=O)c3ccno3)s2)c1` is listed with TsaE inh: i; PK Bst: >57
`CCCCNC(=O)CC1N=C2c3ccccc3N=C(SCC(=O)Nc3cccc(OC)c3)N2C1=O` (configuration not stated) is listed with TsaE inh: i; PK Bst: >57

The listing continues.
# | canonical_smiles | TsaE inh | PK Bst
89 | Cc1cnc(C(=O)NCCc2ccc(S(=O)(=O)NC(=O)NC3CCCCC3)cc2)cn1 | i | >11.4
90 | O=C(O)Cc1c[nH]c2ccc(O)cc12 | i | /
91 | CCOC(=O)c1c(N)c(C#N)nn1-c1ccccc1C(=O)OC | i | >57
92 | Cn1c(=O)c2c(nc(NCC3CCCO3)n2C)n(C)c1=O (configuration not stated) | i | >57
93 | O=C(CCC(=O)N(c1cccc(F)c1)C(C(=O)NC1CCCC1)c1ccncc1)Nc1cccnc1 (configuration not stated) | i | >57
94 | CC(=O)N1CCN=C1SCc1ccccc1F | i | /
95 | c1cc2c(c(NCc3ccncc3)c1)CCCC2 | i | /
96 | N=C1C(c2nc3ccccc3c(=O)[nH]2)=C(O)CN1CCc1ccccc1 | i | /
97 | COc1ccc(C)cc1NC(=O)CSc1nnc(COc2ccccc2)n1Cc1ccco1 | i | >57
98 | CC(C)NC(=O)N1CCC2(CC1)CCN(S(C)(=O)=O)CC2 | i | /
99 | O=C(CCN1C(=O)C2(OCCO2)c2ccccc21)c1ccccc1 | i | >57
100 | COc1ccc(-n2c(SC3CCOC3=O)nc3ccccc3c2=O)cc1OC (configuration not stated) | i | >57
101 | Cc1cc(C(=O)OCC(=O)NCc2ccco2)c(C)n1-c1ccc(F)cc1 | i | >57
102 | COc1cc(C2=NOC(C(=O)NC3CCCCC3)C2)cc(OC)c1OC (configuration not stated) | i | >57
103 | O=C(NCCN1CCOCC1)c1ccc2c(c1)N(Cc1ccc(F)cc1)C(=O)CS2 | i | /
104 | Cc1nn(-c2ccccc2)c2c1C1(C(=O)N(C)c3ccccc31)C(C#N)=C(N)O2 (configuration not stated) | i | >57
105 | O=C(CSc1nc2c(cnn2-c2ccc(F)cc2)c(=O)[nH]1)N1CCCCCC1 | i | /
106 | O=C(c1cnccn1)N1CCC2(CC1)CCN(c1ncccn1)CC2 | i | /
107 | Cc1nn(Cc2ccccc2)c(Cl)c1C(=O)OCc1nnc(-c2ccc(Cl)cc2)o1 | i | ?
108 | c1ccc2c(N3CCCCC3)nc(N3CCCCC3)nc2c1 | / | >25.6
109 | CNc1ccccc1-n1ccc(-c2ccccc2)n1 | i | >11.4
110 | Cc1cccc(CCNC(=O)c2nnc(Cc3ccc(Cl)cc3)o2)c1 | i | /
111 | CN(C)c1nc(OCCNC(=O)COc2ccc(Cl)cc2Cl)nc(N2CCOCC2)n1 | i | >57
112 | O=C(O)/C=C\[C@H](O)c1ccc(Cl)cc1 | i | /
113 | CC1(C)CC2CC(C)(CN2C(=O)C23CCC(C)(C(=O)O2)C3(C)C)C1 (configuration not stated) | i | /
114 | CCc1nc2ccccc2n1CC(=O)N(C(C)CC)C1CCS(=O)(=O)C1 (configuration not stated) | i | >57
115 | N#Cc1cccc(-c2nccc(-n3ccnc3)n2)c1 | i | /
116 | Cc1onc(-c2ccccc2Cl)c1C(=O)NCCn1c(C)cc2ccccc21 | i | /
117 | CSc1cccc(NC(=O)COc2ccccc2)c1 | i | >57
118 | CCCOc1ccc(N2C(=O)CC(N3CCCC(C(=O)N4CCCC4)C3)C2=O)cc1 (configuration not stated) | i | >57
119 | O=C(CSc1nnc(-c2ccccc2O)o1)N1CCc2ccccc2C1 | i | >57
120 | COc1ccccc1NC(=O)c1cc(Sc2nncn2C)nc2ccccc12 | i | >57
